Six1-Eya2 blk = qHTS Assay for Inhibitors of the Six1/Eya2 Interaction; Homeobox protein SIX1 (Homo sapiens) + Protein phosphatase EYA2 (Homo sapiens), …; activity change, % (test concentration not listed); AID 651725, 2012; AlphaScreen GST-Six1/His-Eya2 binding, biochemical; stronger effect = lower value; control for the full effect not named in the record; hit rate 0.56% among 360,000; in the data active = activity change below about -65%; inconclusive = about -30% to -65%; inactive = above about -30%; note: % is set by controls: 0 for no effect and ±100 for the full control effect; compound concentration not given in the record
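AlphaScreen with GST-Six1 and His-Eya2 (5X mix: 250 nM and 500 nM), glutathione donor and nickel acceptor beads; buffer 50 mM Tris pH 8.0, 300 mM NaCl, 1 mM TCEP; 1 h at 37 C in the dark.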
CtBP-E1A blk = qHTS Assay for Inhibitors of the CtBP/E1A Interaction. AID 651724, 2012. CtBP / adenovirus E1A interaction (AlphaScreen). AlphaScreen GST-E1A/His-CtBP binding, 1536-well; stronger effect = lower value; control for the full effect not named in the record. hit rate 0.49% among 340,000. activity change, % (test concentration not listed); in the data active means activity change below about -65%; inconclusive means about -30% to -65%; inactive means above about -30%; note: % is set by controls: 0 for no effect and ±100 for the full control effect; compound concentration not given in the record
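Protein mix (5X: 125 nM each GST-E1A, His-CtBP) was incubated with pinned compound 2 h at 37 deg C in dark, in 50 mM Tris pH 8.0 buffer with 300 mM NaCl. Glutathione donor and nickel acceptor beads followed; AlphaScreen signal read after 1 h.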
D2 ag = Beta-Arrestin HTS for Positive Allosteric Modulators of the Human D2 Dopamine Receptor: Agonists; D(2) dopamine receptor (Homo sapiens), P14416; DiscoveRx PathHunter D2 beta-arrestin, luminescence, 90 min; 100% = 57 uM dopamine signal; activation, % (no concentration beside the values); hit rate 0.084% among 360,000; in the data active = activation above about 40%; inconclusive = about 15% to 40%; inactive = below about 15%; note: compound concentration not given in the record; the text of the record calls up to 30% inactive
Target sequence (P14416 whole entry, looked up): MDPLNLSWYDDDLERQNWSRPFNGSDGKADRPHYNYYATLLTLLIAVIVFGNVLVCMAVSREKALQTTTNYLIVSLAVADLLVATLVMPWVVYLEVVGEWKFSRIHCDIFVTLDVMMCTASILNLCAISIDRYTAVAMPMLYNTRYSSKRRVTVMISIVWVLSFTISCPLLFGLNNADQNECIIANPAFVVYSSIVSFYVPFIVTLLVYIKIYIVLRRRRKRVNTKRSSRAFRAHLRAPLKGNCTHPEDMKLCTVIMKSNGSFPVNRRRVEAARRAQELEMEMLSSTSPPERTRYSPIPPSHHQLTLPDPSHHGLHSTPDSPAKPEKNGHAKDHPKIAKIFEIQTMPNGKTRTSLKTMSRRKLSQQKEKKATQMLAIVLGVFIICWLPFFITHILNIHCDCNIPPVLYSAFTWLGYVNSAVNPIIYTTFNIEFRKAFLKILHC
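Agonist mode: compounds alone added to overnight-plated D2 PathHunter cells for 90 min at 37 C, with 57 uM final dopamine (EC100) defining full response. Beta-arrestin recruitment detected by chemiluminescent reagent, read after 1 h at ambient temperature.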
PINK1 expr mod = A Quantitative High throughput Screen to Identify Chemical Modulators of PINK1 Expression. AID 624263, 2012. hit rate 0.2% among 410,000. PINK1 immunofluorescence, high-content cytometry, 24 h. Potency, µM (top dose mostly 76.6 µM), for the others: at the top dose activation (PINK1 increase), actives largely listed as activators; active = well fitted activation curve with a large enough effect; inconclusive = small, poorly fitted or top-dose-only effect; inactive = flat fitted curve, though single readings scatter; cell line not stated here;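 note: potency is the fitted concentration of half-maximal effect; % of control where 0% means no effect; nearly all actives have a fitted effect of over 65% in size; a mitochondrial uncoupler was the plate control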
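Fluorescence from anti-PINK1 antibody, together with nuclear and cell stains, was scanned on a laser-scanning cytometer. Before staining, stable-line cells were incubated 24 hours with compounds at 5 concentrations; primary antibody 12 h at 10 degrees C.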
D2 potentiator = Beta-Arrestin HTS for Positive Allosteric Modulators of the Human D2 Dopamine Receptor: Potentiators | DiscoveRx D2 beta-arrestin cells, luminescence, 90 min; 100% = 57 uM dopamine signal | potentiation, % (test concentration not listed) | D(2) dopamine receptor (Homo sapiens), P14416 | hit rate 0.23% among 360,000 | AID 624464, 2012; active = potentiation of 50% or more; inconclusive = 30% to 50%; inactive = 30% or less;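 note: compound concentration not given in the record; tested on top of an EC20 dose of dopamine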
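PathHunter beta-arrestin assay in DiscoveRx D2 cells. Compounds were added with an EC20 of dopamine (50 nM final) for 90 min at 37 deg C. Luminescence was read 1 h after detection reagent, with 57 uM dopamine as the EC100 control.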
Sfp PPTase inh = qHTS Assay for Inhibitors of Bacillus subtilis Sfp phosphopantetheinyl transferase (PPTase). Biochemical Sfp PPTase activity, qHTS. hit rate 3.5% among 310,000. AID 1490, 2009. 4'-phosphopantetheinyl transferase ffp (Bacillus subtilis), Q9F4F7. Potency, µM, inactives show max response, negative = inhibition, most hits filed as inhibitors; active = well fitted inhibition curve with a large enough effect; inconclusive = small, poorly fitted or top-dose-only effect, or another doubt; inactive = no such curve, though single readings can be large or run the other way;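 note: the enzyme is Sfp with the accession as filed and its product quenches rhodamine fluorescence; potency is the fitted concentration of half-maximal effect; 0% = enzyme reaction without inhibitor and -100% = no enzyme wells; top concentration of the series not given in the record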
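Step 1, compound plus 15 nM Sfp-PPTase, 15 min, room temperature. Step 2, add rhodamine-CoA (5 uM) and BHQ-2-YbbR (12.5 uM). Step 3, read 525/598 nm fluorescence at 0 and 30 min.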
TRPV1 potentiator = HTS Assay for Compounds that Act as Potentiators of the Vanilloid Receptor 1; potentiation, % at 8.33 µM; TRPV1-expressing cells, Fluo-8 calcium influx, capsaicin EC20 potentiation; host cell line not named in the record; control for the full effect not named in the record; hit rate 0.02% among 320,000; Transient receptor potential cation channel subfamily V member 1 (Homo sapiens), Q8NER1; active means potentiation above 80%; inconclusive means 30% to 80%; inactive means below 30%; note: 0% is about no effect
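TRPV1-expressing cells were cultured overnight at 35.5C and loaded with Fluo-8 calcium dye for 40 to 90 min at room temperature. After a 10 s baseline, compound was added and calcium influx was read kinetically for 3 min (ex 480/em 520 nm).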
Starred values were filed as active, the others as inactive; ? = inconclusive; / = not tested or not shown; & = joins results of further samples; [ ] = remark or other dose. An unsorted share of the library; 3.7% or so of the library scored in one or more.

structure	Six1-Eya2 blk	CtBP-E1A blk	D2 ag	PINK1 expr mod	D2 potentiator	Sfp PPTase inh	TRPV1 potentiator
Cc1noc(C)c1CN(C(=S)NC(C)C)c1ccccc1	15	12	-6.5	0.6%	-9	-4%	1
CC(=O)Nc1cc(-c2cccc(C(=O)N(C)C)c2)cn2c(-c3ccccc3)cnc12	-9	-5	-1.7	1.1%	14	/	/
CCCN(CCC)CCCNC(=O)c1cc2cc3ccc(OC)cc3nc2o1	-5	-2	-0.4	-0.2%	-10	11%	-12
Cc1cccc(C(=O)NNC(=O)c2ccco2)c1	4	2	-2.4	4.3%	-3	12%	1
COc1cc(OC)cc(C(=O)OCC(=O)NC2CCCCCCC2)c1	10	-1	-0.1	3.8%	-18	/	/
CCOC(=O)C1CCN(C(=O)Nc2ccc(OC(F)(F)F)cc2)CC1	2	4	-1.7	0.0%	-10	16%	-10
CN(c1ccccc1)S(=O)(=O)c1nnc(NC(=O)COc2ccccc2)s1	-1	2	1.3	0.3%&0.7%	-1	13%	8&4
CN(C)CCCNc1oc(-c2cccc(Cl)c2)nc1C#N	-1	1	-0.4	0.3%	6	6%	4
CCc1ccc(C(=O)NC(=S)NCc2cccnc2)cc1	-1	-9	-0.1	-0.1%	-4	0%	-2
CCNC(=O)CSc1nc(-c2ccccc2)cs1	-2	5	-4.1	1.2%	-2	16%	4
COC(=O)c1sccc1NC(=O)CC1C(=O)NCCN1C(=O)Nc1ccc(OCc2ccccc2)cc1 (stereo not drawn)	-6	/	7.0	-0.2%	1	-7%	0
Cc1nn(-c2ccccc2)c(N2CCCC2)c1/C=N/NC(=S)Nc1ccccc1F	2	2	-0.8	3.4%	3	3%	-10
COc1ccc(Cl)cc1NC(=O)COC(=O)c1ccc(Br)o1	1	1	-0.8	12%	-2	/	/
O=C(Cc1ccccc1)N/N=C/c1ccccc1Cl	3	9	-3.6	15%[38.3 µM]	-12	-28%	-27
Cc1ccc(/C=N/n2c(-c3cccs3)n[nH]c2=S)cc1	?	-11	-2.2	2.7%	-29	-18%	-7
COc1ccc([C@H]2[C@H](C(=O)OC(C)(C)C)N3N=Cc4ccccc4C3C23C(=O)c2ccccc2C3=O)c(OC)c1 (stereo partly drawn)	-9	10	2.3	3.2%	-8	-9%	-3
CCCS(=O)(=O)N1CCC(C(=O)NCCN(CC)c2ccccc2)CC1	-2	0	-4.1	-1.6%	-5	-2%	0
O=C(c1ccccc1F)c1cc2c(cc1[N+](=O)[O-])OCCO2	-5	-1	1.5	0.5%	-1	-3%	11
N#CCNC(=O)c1cccn1-c1ncc(C(F)(F)F)cc1Cl	2	3	0.6	1.3%	-3	26%	10
COc1ccc(NC(=O)N[C@@H](CCSC)C(=O)O)cc1OC	9	7	0.4	-2.3%	-2	15%	0
COc1ccc(/C=N/N=C2/SCC(=O)N2Cc2ccccc2)cc1	1	6	1.7	0.1%	0	-16%	15
COc1ccccc1CNc1nc2nc(C)c(Cl)c(=O)n2[nH]1	2	4	-2.1	0.7%	-4	13%	-4
CC(C)(C)C(=O)CSc1nc2ncc(Br)cc2[nH]1	-17	-7	0.0	1.9%	-17	8%	16
Cc1nc(Cc2nnc(SCC(=O)N3CCN(c4ccccc4)CC3)o2)cs1	5	-2	-3.0	1.4%	-13	/	-17
Cc1nnc(SCC(=O)N2CCc3ccccc32)s1	2	7	1.6	-0.5%[38.3 µM]	2	-3%	-8
CCCC(NCC(=O)Nc1cc(S(=O)(=O)N2CCOCC2)ccc1OC)c1ccccc1 (stereo not drawn)	-11	-3	0.5	-1.3%	-8	/	-13
COc1ccc2cc(C(c3nnnn3C3CCCC3)N3CCCCCC3)c3nnnn3c2c1 (stereo not drawn)	8	3	-2.3	8.5%	-28	1%	-10
Cc1ccc(NP(=O)(Nc2ccc(C)cc2)Nc2ccc(C)cc2)cc1	-10	-16	-4.7	16%	0	11%	-7
CCCCCNc1nc(-c2ccccc2)nc(-n2ccnc2)n1	-4	0	-5.7	3.6%	-3	20%	-3
Cc1ccc(CN2CC(C(=O)N3CC(C)CC(C)C3)CC2=O)cc1 (stereo not drawn)	9	3	-4.8	3.0%	0	/	-3

The list goes on:
structure	Six1-Eya2 blk	CtBP-E1A blk	D2 ag	PINK1 expr mod	D2 potentiator	Sfp PPTase inh	TRPV1 potentiator
O=C(CSc1nnc(C2CC2)n1CC1CCCO1)Nc1ccccc1Cl (stereo not drawn)	-7	3	-1.6	0.8%	-6	8%	-1
Cc1n[nH]c(C)c1Cc1ccc(C(=O)O)cc1	4	7	2.2	/	-7	17%	2
Cc1nn(-c2ccc(C(=O)OC(C)C)cc2)c(C)c1[N+](=O)[O-]	11	-12	7.1	-0.4%	1	6%	-9
Cc1ccc(-n2c(C)cc(C(=O)CN3CCOCC3)c2C)cc1	-9	-1	-4.4	-0.9%	-15	3%	4
CCOC(=O)C1CCN(C(=O)c2ccccc2CCc2ccccc2)CC1	-4	/	-4.3	0.3%	-28	9%	-4
O=C(CCC(=O)Nc1ccccc1)NNS(=O)(=O)c1ccccc1[N+](=O)[O-]	6	1	-0.7	-1.1%	1	16%	-18
Cc1ccc(NC(=O)CSc2nc(O)cc(=O)n2C)cc1	2	-1	-2.6	0.7%	-1	15%	24
CCOc1ccc(OCc2ccc(C(=O)N3CCCC(C)C3)cc2)cc1 (stereo not drawn)	-12	-21	-1.6	-1.8%	-5	6%	8
Cc1cc(/C=C2/NC(=O)NC2=O)c(C)n1-c1ccc(N2CCOCC2)cc1	-6	-13	0.3	1.4%	-2	-1%	-1
Cn1cnnc1SCC(=O)OCN1C(=O)c2ccccc2C1=O	3	9	-2.9	-3.4%	-5	9%	-9
COc1ccccc1NC(=O)COC(=O)c1ccc2c(c1)OCCO2	5	12	0.3	5.6%	6	/	2
CCc1ccc(Cn2ncc3c(C(=O)O)cc(C)nc32)cc1	-3	6	-2.8	-0.8%	-8	/	/
COc1ccc(S(=O)(=O)n2c(N)nc3ccccc32)cc1	-1	-2	1.5	13%	-3	/	/
Cn1cccc1C(=O)OCC(=O)c1ccc(Br)s1	-15	-2	3.0	-5.1%	-6	/	/
CCC(CC)NC(=O)CO/N=C/c1ccc(Cl)cc1Cl	2	9	-2.5	5.6%	1	4%	-9
Cc1nc2ccc(NC(=O)c3ccccc3)cc2s1	-5	-11	0.8	-0.8%	-4	3%	-16
COc1ccccc1N1CCN(S(=O)(=O)CC23CCC(CC2=O)C3(C)C)CC1 (stereo not drawn)	5	10	0.0	9.9%[38.3 µM]	-2	13%	-5
CCOC(=O)C1=C(c2ccccc2)N2CCS(=O)(=O)N=C2S1	-2	29	-0.5	1.2%[38.3 µM]	-7	1%	-3
C=CCNc1nc(NCc2ccc(NC(C)=O)cc2)c2sc(-c3ccccc3)cc2n1	-9	-9	2.1	-1.1%	-21	/	/
Cc1ccc(NC(=O)CSc2ccccn2)cc1S(=O)(=O)N1CCOCC1	-23	-18	0.6	-0.4%	-4	16%	-6
O=C(c1ccc2nccnc2c1)N1CCCC(Nc2ccc(F)c(F)c2)C1 (stereo not drawn)	9	-1	-3.2	-0.1%	-9	13%	-10
CCC1CCc2sc(C(=O)N(C)CC(=O)Nc3ccc(N4CCOCC4)cc3)cc2C1 (stereo not drawn)	-14	2	-1.3	14%	15	/	24
COc1ccc(C)cc1Cn1nnc2ccccc21	2	1	-7.1	2.1%	-3	/	-26
Cc1nc2ccccn2c1C(=O)NC1CCCC1	-10	0	-3.0	-1.2%	-25	19%	-5
O=C(Cc1ccccc1)NN1C(=O)c2ccccc2C1=O	2	3	-2.6	1.0%	-9	-15%	-1
COc1ccc(C)cc1-n1nnnc1SCc1cn2ccsc2n1	-3	-1	-2.1	0.4%	-4	12%	5
COc1ccc(Nc2nc(N)c3ccccc3n2)c(OC)c1	-4	-12	1.9	0.8%	-24	-3%	-4
COc1ccc(/C=C2\SC(=S)N(CCC(=O)Nc3ccc(O)cc3)C2=O)cc1	4	6	-0.7	-0.2%	-10	3%	26
COc1cc(-c2cc(OC)c(O)c(OC)c2)cc(OC)c1O	5	-1	10.0	14%	-1	/	/
COc1cc(Br)c(CNc2cc(C)ccc2C)cc1OC	?	/	7.5	?	3	?	5

Two neighbouring entries already listed:
structure	Six1-Eya2 blk	CtBP-E1A blk	D2 ag	PINK1 expr mod	D2 potentiator	Sfp PPTase inh	TRPV1 potentiator
Cc1noc(C)c1CN(C(=S)NC(C)C)c1ccccc1	15	12	-6.5	0.6%	-9	-4%	1
CC(=O)Nc1cc(-c2cccc(C(=O)N(C)C)c2)cn2c(-c3ccccc3)cnc12	-9	-5	-1.7	1.1%	14	/	/

In another format: results already given.
Each structure is followed by: Six1-Eya2 blk	CtBP-E1A blk	D2 ag	PINK1 expr mod	D2 potentiator	Sfp PPTase inh	TRPV1 potentiator
- Cc1cccc(C(=O)NNC(=O)c2ccco2)c1
  4	2	-2.4	4.3%	-3	12%	1
- CCC(CC)NC(=O)CO/N=C/c1ccc(Cl)cc1Cl
  2	9	-2.5	5.6%	1	4%	-9
- COc1cc(-c2cc(OC)c(O)c(OC)c2)cc(OC)c1O
  5	-1	10.0	14%	-1	/	/

Source: PubChem BioAssay (National Center for Advancing Translational Sciences (NCATS))
